# Screening data as filed in PubChem.
# PABP FP inh = blocks human PABP binding to poly(A) RNA; P11940; fluorescence polarization; inhibition, % at 35 µM; 1% of 290,000 active; AID 2014;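 active means 50% or more with normal probe brightness, or confirmed in later tests; about a fifth of its hits are not listed in these tables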;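 further: calls also rest on retests at 20 µM and on dose response follow-up; controls were probe without protein and protein plus probe with vehicle; some compounds called inactive have numbers as strong as hits; many hits fall short of the cut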
# Target sequence (P11940 whole entry, looked up): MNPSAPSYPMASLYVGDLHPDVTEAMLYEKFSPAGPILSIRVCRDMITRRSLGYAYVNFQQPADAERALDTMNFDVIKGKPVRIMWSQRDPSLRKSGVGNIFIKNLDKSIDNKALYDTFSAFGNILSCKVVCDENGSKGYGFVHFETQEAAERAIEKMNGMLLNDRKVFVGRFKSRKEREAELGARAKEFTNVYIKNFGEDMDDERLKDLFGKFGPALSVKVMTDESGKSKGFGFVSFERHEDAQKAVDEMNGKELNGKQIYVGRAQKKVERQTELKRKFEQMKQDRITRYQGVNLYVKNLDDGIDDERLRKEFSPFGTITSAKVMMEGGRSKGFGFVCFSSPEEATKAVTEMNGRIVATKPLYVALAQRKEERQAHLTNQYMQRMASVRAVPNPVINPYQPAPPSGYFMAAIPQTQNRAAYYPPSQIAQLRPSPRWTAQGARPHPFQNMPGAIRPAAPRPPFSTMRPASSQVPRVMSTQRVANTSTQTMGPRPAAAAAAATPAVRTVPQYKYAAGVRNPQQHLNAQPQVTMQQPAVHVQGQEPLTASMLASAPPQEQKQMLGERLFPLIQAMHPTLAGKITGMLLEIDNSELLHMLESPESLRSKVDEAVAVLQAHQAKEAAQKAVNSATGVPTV
# Rce1 inhib = blocks yeast Ras-converting enzyme; 0.27% of 290,000 active; yeast membranes, quenched prenylated peptide cleavage fluorescence; AID 2563; calls only;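 active means fall in fluorescence gain of 50% or more versus controls, with final raw signal at or below 3038400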;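 further: plate controls were neutral control wells for no effect and wells lacking membranes for full effect; tested at 10 µM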
# Target sequence (Q03530 whole entry, looked up): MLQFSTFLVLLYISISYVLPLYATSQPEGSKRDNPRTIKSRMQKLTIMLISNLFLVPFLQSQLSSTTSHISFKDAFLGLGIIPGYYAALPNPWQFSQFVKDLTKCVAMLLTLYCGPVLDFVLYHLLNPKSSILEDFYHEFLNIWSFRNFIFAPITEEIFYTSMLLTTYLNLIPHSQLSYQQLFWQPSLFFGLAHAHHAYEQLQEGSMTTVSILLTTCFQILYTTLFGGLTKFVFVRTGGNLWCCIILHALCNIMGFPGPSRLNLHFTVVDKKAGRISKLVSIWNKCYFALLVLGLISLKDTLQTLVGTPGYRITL
# UUG fidelity = alters start codon recognition fidelity in yeast. S. cerevisiae UUG-firefly luciferase reporter, luminescence/redox ratio. activity score, % at 18.7 µM. 0.13% of 350,000 active. AID 602363;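 active means replicate mean at a twofold rise or more, about +100% in these data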;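 further: firefly luciferase made from a UUG start codon reports start codon fidelity; reporter light over untreated wells divided by growth signal over untreated wells; some hits fall short of that in this replicate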
# MT1-MMP act inh = blocks activation of human MT1-MMP | HT1080 RFP-PRO-GFP cells, GFP/RFP ratio fluorescence, overnight; percent of plate control window, DMSO zero | AID 651647 | GFP/RFP ratio change, % at 20 µM | 0.061% of 360,000 active;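 active means GFP/RFP ratio change of at least 30% with cell ATP level not reduced by more than half and red fluorescence within 50% of control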; further: strong numbers were not always called active
#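 Read-out: GFP/RFP fluorescence ratio; Test system: RFP-PRO-GFP reporter HT1080 cells; Compound dosing: single-point 20 µM compound, 1% DMSO; Times: overnight compound exposure at 37 °C.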
# HIV Env fusion = inhibitors of HIV Env-mediated cell fusion; HeLa-JRFL Env/CEM21 cell fusion, luciferase; inhibition, % at 12.3 µM; 1.1% of 360,000 active; AID 651610;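 active means mean replicate inhibition score of at least 50 and every replicate individually at or above 50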;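 further: 0% = plate neutral controls and 100% = maraviroc near 300 nM; one replicate is shown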
# CSC inhib = blocks cancer stem cells; inhibition, % at 7.5 µM; 1.1% of 300,000 active; cancer stem cell-like cells viability, luminescence;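 active means mean at 75% or more and at least half the replicates too; tested in HMLE shEcad cells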;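 further: 0% = median of negative and 100% = median of positive control wells; the first replicate is given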
# eIF4H FP inh = inhibitors of RNA binding by human eIF4H; Q15056; AID 2012; inhibition, % at 35 µM; eIF4H fluorescence polarization binding assay; 0.94% of 290,000 active;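 active means 50% or more with normal probe brightness, or confirmed in later tests; about a fifth of its hits are not listed in these tables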;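 further: calls also rest on retests at 20 µM and on dose response follow-up; 0% = protein and probe with vehicle and 100% = probe without protein; strong numbers were not always called active; many hits fall short of the cut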
# eIF4H FP inh retest = further read-out of eIF4H FP inh, marked with its call; inhibition, %; compound at 20 µM; confirmation average;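 mean of two retest wells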
# PABP FP inh retest = also measured in PABP FP inh; calls as there; inhibition, %; compound at 20 µM; confirmation repeats;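 mean of two retest wells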
# MT1-MMP act inh RFP = further read-out of MT1-MMP act inh, marked with its call; RFP signal change, %; measured here: RFP expression control read;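 0 = vehicle wells; hits needed this value within 50% of zero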
# Starred values were filed as active, the others as inactive; i = inactive; · = no result given.
SMILES,PABP FP inh,Rce1 inhib,UUG fidelity,MT1-MMP act inh,MT1-MMP act inh RFP,HIV Env fusion,CSC inhib,eIF4H FP inh,others
CCC1CCCCN1CCCNC(=O)Cn1ncn2nc(-c3ccc(OC)cc3)cc2c1=O (centres undefined),-20,i,-18,2,4,2,20,0,
CCC(C)c1c(O)nc(SCC(=O)Nc2ccccc2)[nH]c1=O (centres undefined),4,i,3,-4,2,-65,0,-5,
Cc1c(C(=O)NCCCn2ccnc2)oc2ccccc12,12,i,-8,3,2,-3,11,-2,
O=C1CC(=O)C(n2cncn2)C(c2ccc(Cl)cc2)C1 (centres undefined),-2,i,-7,1,0,-13,-11,-10,
CC1CCN(C(=O)Cn2nnc(-c3ccc([N+](=O)[O-])cc3)n2)CC1,2,i,-11,5,-3,13,-11,-5,
COC(=O)Cn1cnc2sc(C)c(S(=O)(=O)N3CCC(C)CC3)c2c1=O,1,i,4,-1,1,0,-5,-6,
CCCC[C@@H]1C[C@H]1[C@@H](NC(=O)c1ccco1)c1ccc(Cl)cc1,7,i,2,-3,-7,7,23,8,
CCOC(=O)N1CCN(C(=O)c2noc3c2COc2ccccc2-3)CC1,2,i,-15,-4,1,-36,0,1,
COc1ccccc1N(C)S(=O)(=O)c1ccc(C(=O)Nc2nc(C)cs2)cc1,5,i,·,-1,-9,-1,2,-15,
O=C(CSc1nc(-c2ccccc2)cc(=O)[nH]1)Nc1ccccc1F,1,i,-14,3,2,-1,-8,4,
COCCn1c(SCC(=O)Nc2cc(C)on2)nnc1-c1c[nH]c2ccccc12,-2,i,-19,-2,-2,13,-4,-2,
S=C(Nc1ccccc1)Nc1ccc(OCc2ccccc2)cc1,-4,i,-14,3,3,-39,-7,-3,
COc1cccc(OCCNC(=O)c2ccc(C)cc2)c1,2,i,·,2,1,8,-6,-1,
CCS(=O)(=O)NCCNc1ccc([N+](=O)[O-])cc1,-1,i,-7,1,0,-18,-4,-5,
COc1ccc(OC)c(-n2c(-c3ccc(C)cc3)n[nH]c2=S)c1,-11,i,-9,4,1,-1,0,-8,
Cc1nc(C(F)(F)F)ccc1C(=O)N1CCC1(C)C(=O)NCc1ccc(Cl)cc1 (centres undefined),·,·,-1,3,2,-5,·,·,
CCCn1nnnc1SCC(=O)N1CCCCC1,-6,i,-7,3,8,8,·,-7,
COc1ccc(C2=CSC3=NNC4(CCCCC4)NN23)cc1,6,i,·,0,2,12,0,-24,
O=C(O)c1cccc(NC2=Nc3cccc4cccc2c34)c1,15,i,·,0,2,-12,-14,-3,
O=c1c2ccsc2ncn1Cc1ccccc1F,2,·,·,-4,0,·,7,-5,
Oc1c(C=C2N=c3ccccc3=N2)sc(=S)n1-c1ccccc1,5,i,-9,-20,2,15,18,32,
COc1ccc(S(=O)(=O)N2CCCCCC2)cc1NC(=O)c1ccccc1,5,i,-1,1,-1,20,2,3,
COCCSc1nnc(NC(=O)C2CCN(C(=O)c3ccco3)CC2)s1,6,i,3,0,1,-28,5,-5,
COc1ccccc1N1CCN(C(c2cccs2)c2nnnn2C2CCCC2)CC1 (centres undefined),-12,i,-12,11,1,·,14,-3,
N=C1S/C(=C\c2ccco2)C(=O)N1c1ccc2c(c1)OCO2,40*,i,1,2,-2,-5,-5,91,eIF4H FP inh retest=-7;PABP FP inh retest=58*
CC(=O)Cn1ncc(Br)c(Br)c1=O,-2,i,-23,-17,-16,-271,·,-4,
CC(C)=CC(=O)OCC(=O)Nc1ccc(Cl)cn1,-8,i,-14,0,7,·,-9,-8,
CN(C)C1=NC[C@H](Cc2ccccc2)N1CCC1CCCC1,·,·,0,0,3,-3,3,·,
COc1ccccc1C(=O)N1CC(=O)Nc2ccc(C)cc2C1c1ccc(F)cc1 (centres undefined),-6,i,2,2,0,-36,-17,-7,
CC1=C(C(=O)NCc2ccccn2)C2(CCC(C)CC2)OC1=O (centres undefined),-10,i,-2,4,5,-1,-9,-5,
COc1ccc(OC)c(NC(=O)C2CCN(S(C)(=O)=O)CC2)c1,0,i,-5,5,2,·,-16,9,
CCN(CC)CCOC(=O)C(Cc1cccc2ccccc12)CC1CCCO1 (centres undefined),1,i,-10,-2,0,1,-3,6,
Cc1ccc2c(CN(C)Cc3cccc(F)c3)cc(=O)oc2c1,1,i,-6,-2,-4,-16,6,-3,
CCCCC(=O)N1CCCC(C)C1 (centres undefined),9,i,-15,0,5,-3,-1,-3,
Cc1ccc(S(=O)c2ccc(C)cc2)cc1,8,i,-7,-6,1,-9,-13,3,
COc1ccc(S(=O)(=O)N2CCOCC2)cc1NC(=O)c1cc2c(s1)CCCC2,20,i,·,-1,-3,1,3,-6,
O=C(NCCCN1CCCC1=O)C1CCN(S(=O)(=O)c2cccc(Cl)c2Cl)CC1,·,·,-17,1,1,-7,-12,·,
CC(=O)Nc1ccc(CN2CCCC(C(=O)c3cccc(C(F)(F)F)c3)C2)cc1 (centres undefined),-9,i,·,1,1,-13,43,11,
Cc1ccc(OCC(=O)N(C)CC(=O)Nc2ccccc2Cl)c([N+](=O)[O-])n1,·,·,-8,7,-1,12,-6,·,
CC(NS(C)(=O)=O)C(c1cccs1)N1CCN(c2ccccc2F)CC1 (centres undefined),·,i,-10,1,2,·,-3,·,
COc1cccc(NC(=S)NCc2cccs2)c1,2,i,·,3,6,-6,-14,-6,
Cc1cccc(NC(=O)CN2C(=O)S/C(=C\c3ccc(O)c([N+](=O)[O-])c3)C2=O)c1,-7,i,·,8,2,-7,-29,9,
CC1CCCN(C(=O)NC2CC(=O)N(c3ccc4c(c3)OCCO4)C2)C1 (centres undefined),·,i,-3,8,3,-12,-1,·,
Cc1nn(C(=O)N2CCOCC2)c(C)c1CN1C(=O)c2ccccc2C1=O,·,·,-12,5,5,6,1,·,
Cc1ccc(C(=S)N2CCN(Cc3ccccc3)CC2)s1,1,·,·,1,0,1,0,-12,
COCCNC(=O)C(=O)NCC(c1ccc2c(c1)OCO2)N1CCN(c2ccc(F)cc2)CC1 (centres undefined),9,i,-9,4,2,19,4,-13,
COc1ccc(NC(=O)C(=O)Nc2cccc3ccccc23)c(OC)c1,6,·,-31,0,3,-11,0,-13,
COc1cc(Cl)ccc1OCc1cc(C(=O)N(C)C2CCOC2)no1 (centres undefined),-7,i,0,5,4,-11,-7,-5,
N#Cc1c(SCC(=O)Nc2nc3ccc(Br)cc3s2)sc2c(O)cc(=O)[nH]c12,48*,·,-23,-7,7,-33,-2,73*,eIF4H FP inh retest=73*;PABP FP inh retest=74*
COc1cc(NC(=O)c2ccc(CNc3c(N4CCOCC4)c(=O)c3=O)cc2)cc(OC)c1,-8,i,0,2,6,17,-11,-2,
CC(C)c1ccc(NC(=O)[C@H]2CSCN2C(=O)[C@@H]2CCC(=O)N2)cc1,10,i,-19,3,4,-9,-1,9,
O=C(CSc1nc(C(F)(F)F)cc(=O)[nH]1)N1CCCCCC1,·,i,-10,-1,0,-5,-16,·,
O=C(c1cccnc1)n1nc(-c2ccco2)nc1NCc1cccs1,-7,i,-11,3,3,-1,·,-2,
O=C(COc1ccc2c(c1)OCO2)Nc1nccs1,2,i,-36,3,3,-4,·,-8,
O=C(NC1CCN(Cc2ccccc2)CC1)C1CCN(S(=O)(=O)c2cccc3cccnc23)CC1,5,i,2,-4,-10,-32,-8,2,
Cc1nc(NC(C)C)c2cnn(CCc3ccccc3)c2n1,1,i,-4,5,-1,·,-3,-8,
CCSc1nnc(Cc2cc(=O)[nH]c(=O)[nH]2)n1-c1cccc(C)c1,10,i,-8,2,7,-4,-14,5,
O=C(NCCCNC(=O)c1ccccn1)c1ccccn1,7,i,-1,-19,-1,·,-10,-3,
Cc1ccccc1NS(=O)(=O)c1ccc2c(c1)CCC(=O)N2,·,·,-16,3,3,2,·,·,
CCNC(C(=O)c1c[nH]c2c(CC)cccc12)c1ccccc1 (centres undefined),0,i,-6,0,-4,4,-12,-18,
# (next part)
SMILES,PABP FP inh,Rce1 inhib,UUG fidelity,MT1-MMP act inh,MT1-MMP act inh RFP,HIV Env fusion,CSC inhib,eIF4H FP inh,others
Cc1cc(F)ccc1NC(=O)c1cc(S(=O)(=O)N2CCCC2)cn1C,-10,i,-8,8,5,7,-19,-8,
COC(=O)Cc1ccc(O)c(N)c1,1,i,-13,5,1,8,-9,8,
CC(=O)C1=C(C)NC(=O)NC1c1ccc(OC2CCCC2)cc1 (centres undefined),-12,i,-19,-1,-4,·,-7,-12,
CC(C)c1ccc(CNc2ccc(N3CCOCC3)cc2)cc1,14,i,-20,4,-10,-11,7,-6,
Cn1ncc(N=Cc2ccccc2)c1C(=O)Nc1cccc(Cl)c1,2,i,-7,-4,-1,-21,28,6,
Cc1ccc(NC(=O)CSC2=Nc3ccccc3C3CC=NN23)c(C)c1 (centres undefined),0,i,-20,-2,-4,-24,6,-13,
Cc1cc(C)cc(-n2ncc3c2CCCC3NC(=O)C2CCC2)c1 (centres undefined),-4,i,-6,-1,-5,-3,-2,-3,
COc1ccc(-n2c3c(c(=O)[nH]c2=O)C(NC(C)=O)(C(F)(F)F)C(=O)N3)cc1 (centres undefined),2,i,-10,2,5,10,-1,3,
CC1CCCN(c2nc(NCc3ccco3)nc(N)c2[N+](=O)[O-])C1 (centres undefined),-7,i,·,-6,-17,13,·,4,
Cc1ccc(-c2csc(N(CCc3ccccc3)C(=O)COc3ccccc3)n2)cc1,-1,i,-14,1,3,-39,-5,0,
CCOC(=O)Cc1csc(NC(=O)c2ccc(C)o2)n1,-1,i,-23,1,-6,-25,1,-9,
Cn1cccc1C(=O)C(=O)Nc1cccc(Cl)c1Cl,7,i,-11,0,1,·,10,-1,
COc1ccc2[nH]c3c(=O)n(CCCCC(=O)N4CCCC4)c(=S)[nH]c3c2c1,6,i,-12,6,-1,25,-10,-5,
CC(C)(C)C1CCC(=NNC(=O)CN(c2ccccc2)S(C)(=O)=O)CC1 (centres undefined),-4,i,-7,-2,-1,7,0,-9,
COc1ccc(-c2nc(C(N)=O)c3[nH]c(=O)n(-c4cccc(Cl)c4)c3n2)cc1OC,-25,i,-15,-13,-14,·,·,0,
O=C(O)c1ccc(Nc2ccc(F)c(F)c2)c([N+](=O)[O-])c1,14,i,-6,2,0,3,6,7,
CCCC(=O)Nc1cc(-c2nn(C)c(=O)c3ccccc23)ccc1N1CCOCC1,1,i,-8,5,3,-72,-3,0,
Cc1ccc(NC(=O)COC(=O)COc2ccc(Cl)cc2C)c([N+](=O)[O-])c1,16,i,-7,2,1,·,-4,-2,
O=C(NCc1ccc(OC(F)(F)F)cc1)c1cccc2c1C(=O)c1ccc(N3CCCCC3)cc1S2(=O)=O,·,·,-5,-105,2,15,13,·,

# Structures listed so far that have a furan ring, fused or not:
SMILES,PABP FP inh,Rce1 inhib,UUG fidelity,MT1-MMP act inh,MT1-MMP act inh RFP,HIV Env fusion,CSC inhib,eIF4H FP inh,others
Cc1c(C(=O)NCCCn2ccnc2)oc2ccccc12,12,i,-8,3,2,-3,11,-2,
CCCC[C@@H]1C[C@H]1[C@@H](NC(=O)c1ccco1)c1ccc(Cl)cc1,7,i,2,-3,-7,7,23,8,
COCCSc1nnc(NC(=O)C2CCN(C(=O)c3ccco3)CC2)s1,6,i,3,0,1,-28,5,-5,
N=C1S/C(=C\c2ccco2)C(=O)N1c1ccc2c(c1)OCO2,40*,i,1,2,-2,-5,-5,91,eIF4H FP inh retest=-7;PABP FP inh retest=58*
O=C(c1cccnc1)n1nc(-c2ccco2)nc1NCc1cccs1,-7,i,-11,3,3,-1,·,-2,
CC1CCCN(c2nc(NCc3ccco3)nc(N)c2[N+](=O)[O-])C1 (centres undefined),-7,i,·,-6,-17,13,·,4,
CCOC(=O)Cc1csc(NC(=O)c2ccc(C)o2)n1,-1,i,-23,1,-6,-25,1,-9,
